Screening results: PubChem BioAssay, National Center for Advancing Translational Sciences (NCATS)
Six1-Eya2 inh: Six1/Eya2 interaction inhibition; AlphaScreen GST-Six1/His-Eya2 binding, biochemical; active compounds read low; control for the full effect not named in the record; activity change, % (test concentration not listed); actives 0.56% (n = 360,000); in the data active = activity change below about -65%; inconclusive = about -30% to -65%; inactive = above about -30%; note: % is set by controls: 0 for no effect and ±100 for the full control effect
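Compounds are tested against tagged Six1 and Eya2 proteins bridged by glutathione donor and nickel acceptor beads; after a one-hour incubation at 37 °C without light, AlphaScreen emission is recorded.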
TRPML1 ag: agonists of human TRPML1 channel | Q9GZU1 | TRPML1-expressing cells, Ca2+ dye fluorescence, FDSS; host cell line not named in the record; reference of the full effect not given here | activation, % (test concentration not listed) | actives 0.12% (n = 410,000); in the data active = activation above about 50%; inconclusive = about 30% to 50%; inactive = below about 30%; note: 0% is about no effect; the text of the record puts the active cut at 80%
Target sequence (Q9GZU1 whole entry, looked up): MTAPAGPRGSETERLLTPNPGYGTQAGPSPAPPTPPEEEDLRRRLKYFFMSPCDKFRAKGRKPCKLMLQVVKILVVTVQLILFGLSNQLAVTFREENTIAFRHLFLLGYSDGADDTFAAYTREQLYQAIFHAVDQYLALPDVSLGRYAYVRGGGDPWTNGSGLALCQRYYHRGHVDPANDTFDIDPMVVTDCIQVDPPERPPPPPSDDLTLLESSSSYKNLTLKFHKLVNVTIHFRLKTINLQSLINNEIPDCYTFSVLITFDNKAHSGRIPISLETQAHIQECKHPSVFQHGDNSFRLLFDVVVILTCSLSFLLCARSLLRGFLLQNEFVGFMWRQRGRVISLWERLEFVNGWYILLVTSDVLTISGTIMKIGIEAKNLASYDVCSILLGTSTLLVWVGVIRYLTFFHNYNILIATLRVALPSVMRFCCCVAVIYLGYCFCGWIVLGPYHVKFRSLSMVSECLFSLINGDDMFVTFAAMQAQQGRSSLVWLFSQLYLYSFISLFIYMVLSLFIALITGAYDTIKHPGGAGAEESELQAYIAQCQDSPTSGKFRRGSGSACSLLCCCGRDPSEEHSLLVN
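Calcium fluorescence on an FDSS kinetic reader gave the read-out. Tet-induced TRPML1-DL cells were plated overnight, dye-loaded (Ca8 with quencher, 45-90 min, room temperature, dark), then read 110 s after compound addition, and again 110 s after 4uM final 54-4 (EC80).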
D2 ag: human D2 receptor agonism in beta-arrestin assay. P14416. DiscoveRx PathHunter D2 beta-arrestin, luminescence, 90 min; 100% = 57 uM dopamine signal. activation, % (concentration not given with the values). actives 0.084% (n = 360,000). AID 624465; in the data active = activation above about 40%; inconclusive = about 15% to 40%; inactive = below about 15%; note: compound concentration not given in the record; the text of the record calls up to 30% inactive
Target sequence (P14416 whole entry, looked up): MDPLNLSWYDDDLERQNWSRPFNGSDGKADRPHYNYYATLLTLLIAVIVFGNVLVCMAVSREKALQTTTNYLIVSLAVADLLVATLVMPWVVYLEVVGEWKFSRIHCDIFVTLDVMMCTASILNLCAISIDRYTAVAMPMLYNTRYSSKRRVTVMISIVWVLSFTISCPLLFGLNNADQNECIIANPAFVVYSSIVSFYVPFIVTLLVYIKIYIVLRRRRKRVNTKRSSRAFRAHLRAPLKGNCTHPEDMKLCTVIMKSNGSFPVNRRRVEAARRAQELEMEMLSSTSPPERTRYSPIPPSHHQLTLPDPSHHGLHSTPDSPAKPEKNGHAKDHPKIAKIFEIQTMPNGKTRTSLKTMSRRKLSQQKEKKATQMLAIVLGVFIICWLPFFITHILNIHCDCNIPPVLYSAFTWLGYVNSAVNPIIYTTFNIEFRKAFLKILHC
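DiscoveRx PathHunter D2 beta-arrestin cells (2,100/well) attached overnight, then compound-stimulated 90 min at 37 C in HBSS/10 mM HEPES/0.1% Tween-20 buffer; beta-galactosidase complementation read by luminescence after 1 h at ambient temperature. Dopamine 57 uM final (EC100) as control.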
PINK1 modulator: changes PINK1 expression. Potency, µM (highest dose often 76.6 µM), for the others: at the highest dose activation (PINK1 increase), hits mostly activators. PINK1 immunofluorescence, high-content cytometry, 24 h. actives 0.2% (n = 410,000); active = well fitted activation curve with a large enough effect; inconclusive = small, poorly fitted or top-dose-only effect; inactive = flat fitted curve, though single readings scatter; cell line not stated here;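 note: potency is the fitted concentration of half-maximal effect; % of control where 0% means no effect; nearly all actives have a fitted effect of over 65% in size; a mitochondrial uncoupler was the plate control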
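Decision-based qHTS: stable cells, 24 h exposure to five compound concentrations, CCCP as control. Fixed cells stained for PINK1 plus nuclear, mitochondrial and cell markers, cytometer read.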
D2 PAM: positive allosteric modulators of human D2 dopamine receptor. DiscoveRx D2 beta-arrestin cells, luminescence, 90 min; 100% = 57 uM dopamine signal. potentiation, % (no concentration beside the values). actives 0.23% (n = 360,000); active = potentiation of 50% or more; inconclusive = 30% to 50%; inactive = 30% or less;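 note: compound concentration not given in the record; tested on top of an EC20 dose of dopamine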
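PathHunter D2 cells, attached overnight at 37 deg C, received compound in DMSO plus dopamine at EC20 (50 nM final) for 90 min at 37 deg C. Beta-arrestin recruitment was read as luminescence after 1 h with detection reagent at ambient temperature.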
CtBP-E1A inh: CtBP/E1A binding inhibition; activity change, % (no concentration beside the values); AID 651724; actives 0.49% (n = 340,000); AlphaScreen GST-E1A/His-CtBP binding, 1536-well; active compounds read low; control for the full effect not named in the record; in the data active means activity change below about -65%; inconclusive means about -30% to -65%; inactive means above about -30%; note: % is set by controls: 0 for no effect and ±100 for the full control effect
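GST-E1A and His-tagged CtBP (125 nM each as 5X stock) were preincubated with pin-transferred compound for 2 h at 37 °C in the dark, then glutathione donor and nickel acceptor beads were added for 1 h before AlphaScreen reading.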
An asterisk follows results filed as active; ? = inconclusive; · = no result given; & = joins results of further samples; [ ] = remark or other dose.

SMILES,Six1-Eya2 inh,TRPML1 ag,D2 ag,PINK1 modulator,D2 PAM,CtBP-E1A inh
NC(=O)C1CCCN(CCc2ccccc2)C1 (configuration not stated),4,0.4,1.4,0.4%[38.3 µM],-8,1
O=C1C2CC=CCC2C(=O)N1c1n[nH]c(CCc2ccccc2)n1 (configuration not stated),4,-0.7,0.1,-1.3%[38.3 µM],6,6
CCCCC[C@H]1CN(Cc2ccc(OC)cc2)C(=O)[C@@H]1CC(=O)NCc1ccccc1,22,0.1&-0.1,-3.2,?,-10,0
O=C1OC(CCl)CN1Cc1ccc([N+](=O)[O-])cc1 (configuration not stated),6,0.7,-3.2,0.8%,1,-3
COc1cccc(-n2c(SCC(=O)NCC3CCCO3)nc3c([nH]c4ccccc43)c2=O)c1 (configuration not stated),-1,2.4,-2.5,5.3%,-1,-3
COc1cc(Cn2c(-c3ccc(O)c(OC)c3)nc3ccccc32)ccc1O,-9,0.9,4.7,2.4%,7,-26
CC(OC(=O)c1cc2sccc2n1C)C(=O)NCc1ccc2c(c1)OCO2 (configuration not stated),-1,0.4,-3.6,·,-2,6
CCCN1CCC(=NNC(=O)c2ccc(Br)o2)CC1,0,0.2,1.0,·,-5,10
CCOC(=O)NC(=O)C(=CNNc1ncc(C(F)(F)F)cc1Cl)C(=O)NC(=O)OCC,-7,0.3,-0.1,0.9%,-5,9
CC1=NN(c2ccccc2)C(=O)/C1=C\c1cc(C)n(C)c1C,3,-0.6,-8.3,2.9%,-8,0
C/C(=N\NC(=S)NC1CCCCC1)c1ccc(C)o1,-24,2.4,?,1.4%,5,?
CC(C)(CNS(=O)(=O)c1cccs1)N1CCOCC1,0,0.3,-3.2,-2.8%,-1,4
COCCN=c1scc(-c2ccco2)n1/N=C/c1ccc(O)c(O)c1O,-84*,-0.1,70*,8.3%,88*,-79*
CCC(C(=O)N1CCN(c2ncccn2)CC1)c1ccccc1 (configuration not stated),2,·,-0.9,-1.4%,-2,6
CC(C)NC(=O)c1cnc(N2CCN(c3ccccn3)CC2)c2ccccc12,-6,1.5,-0.2,-0.4%,-4,-13
COCCn1c(SCC(=O)Nc2ccc(Cl)c(S(=O)(=O)N(C)C)c2)nc2ccccc21,-3,2.8,2.6,-2.1%,-13,-1
COCCNC(=O)c1noc2c1CCc1cc(OC)ccc1-2,0,0.3,-1.7,2.9%[38.3 µM],-12,3
Cc1c(Cl)cccc1NS(=O)(=O)c1cn(C)c(=O)n(C)c1=O,6,-0.6,-3.4,1.2%,-3,1
Cc1ccc(C(=O)CC(=O)c2ccc(C)cc2O)cc1,-22,-1.3,-8.0,?,-20,-7
CCn1c(COc2cccc(C)c2C)nnc1SCC(=O)Nc1cc(C)on1,7,0.6,-3.3,0.2%,-6,20
O=C(NC1CCCc2ccccc21)c1ccccc1OC(F)F (configuration not stated),2,0.3,-2.7,-0.2%,-7,4
CCOc1ccc(Cn2c(SCCCCC#N)nc3c2c(=O)n(C)c(=O)n3C)cc1OCC,0,0.8,-1.7,1.3%,-1,-1
Cc1ccc(S(=O)(=O)N[C@H](C(=O)N2CCC(C(=O)NCC(=O)O)CC2)C(C)C)cc1,10,0.0,1.3,1.3%,-6,-2
Cc1ccc2c(c1)N(CCC(=O)NC(C)C)C(=O)CO2,0,-0.4,-1.8,0.7%,-9,-10
Cn1cnnc1Sc1cc(N2CCN(S(=O)(=O)c3ccccc3)CC2)ccc1[N+](=O)[O-],-5,6.1,-2.3,0.6%,-3,-5
CCN(CC)S(=O)(=O)C1CCS(=O)(=O)C1 (configuration not stated),-2,0.7,0.6,-0.4%,-1,6
COc1ccc(N(CC(=O)N2CCN(C)CC2)S(C)(=O)=O)cc1OC,5,0.7,0.0,0.7%,-4,-2
O=C(N/N=C/c1ccccn1)c1cc(-c2ccc(Cl)cc2)nc2ccccc12,-7,2.5,-0.3,5.7%,-8,6
CNC(=O)c1cc2cc(Br)ccc2s1,-4,0.3,-2.0,2.4%,-8,-7
CCc1nc2ccccc2n1CC(=O)N1CCN(S(=O)(=O)c2cccc(C(F)(F)F)c2)CC1,-2,0.4,1.3,·,10,-4

Whole records, looked up by structure. Order of screens: Six1-Eya2 inh	TRPML1 ag	D2 ag	PINK1 modulator	D2 PAM	CtBP-E1A inh
CCN(CC)S(=O)(=O)C1CCS(=O)(=O)C1 (configuration not stated) reads -2	0.7	0.6	-0.4%	-1	6
Cc1ccc(C(=O)CC(=O)c2ccc(C)cc2O)cc1 reads -22	-1.3	-8.0	?	-20	-7
COc1ccc(N(CC(=O)N2CCN(C)CC2)S(C)(=O)=O)cc1OC reads 5	0.7	0.0	0.7%	-4	-2
COCCn1c(SCC(=O)Nc2ccc(Cl)c(S(=O)(=O)N(C)C)c2)nc2ccccc21 reads -3	2.8	2.6	-2.1%	-13	-1

Gathered by group, the entries above containing bromine (2)
SMILES,Six1-Eya2 inh,TRPML1 ag,D2 ag,PINK1 modulator,D2 PAM,CtBP-E1A inh
CCCN1CCC(=NNC(=O)c2ccc(Br)o2)CC1,0,0.2,1.0,·,-5,10
CNC(=O)c1cc2cc(Br)ccc2s1,-4,0.3,-2.0,2.4%,-8,-7

The listing continues.
SMILES,Six1-Eya2 inh,TRPML1 ag,D2 ag,PINK1 modulator,D2 PAM,CtBP-E1A inh
COc1ccc(S(=O)(=O)NC(C(=O)OCC(=O)Nc2ccc(N3CCOCC3)cc2)C(C)C)cc1 (configuration not stated),-3,2.0,-4.6,0.0%,-20,5
Cc1ccc(S(=O)(=O)NCC(=O)N(CC(=O)NCC2CCCO2)c2ccc(Cl)cc2)cc1 (configuration not stated),2,-0.7,-3.1,-0.9%,-8,6
CC(NC(=O)COC(=O)c1ccc2c(=O)n3c(nc2c1)CCCCC3)c1ccc(F)cc1 (configuration not stated),3,-0.2,-1.2,-0.3%,-6,3
Cc1nc2ccccc2n1-c1ccccc1,1,-0.3,-2.7,1.9%,-30,0
COc1ccc(/C=N/NC(=O)c2cc(-c3cccnc3)nc3ccccc23)c(OC)c1,10,1.4,-1.5,0.4%,-4,0
CCc1cccc(C)c1NS(=O)(=O)Cc1ccccc1,-15,0.9,-2.3,2.8%,-11,2
Cc1ccc(Cl)cc1NC(=S)N(CCCN1CCOCC1)Cc1ccccn1,3,-0.9,-2.0,-1.0%,-12,2
O=C(COc1ccc(S(=O)(=O)Nc2cccc(C(F)(F)F)c2)cc1)N1CCOCC1,6,4.4,-1.3,1.6%,2,0
C/C(=N\NC(=O)c1nnn(-c2nonc2N)c1CN(C)c1ccccc1)c1ccc(O)cc1,1,-0.2,5.1,-0.6%,-7,2
CCOc1ccc(CNC(=O)CCS(=O)(=O)Cc2ccc(C)cc2)cc1OC,7,-1.0,-3.1,1.8%,-17,6
Cc1nc(C(F)(F)F)c(C(=O)N/N=C(\N)c2ccccn2)s1,-77*,-0.4,3.7,-0.5%,-22,-92*
CCOC(=O)c1sc(NCCNc2nc(C)c(C(=O)OCC)s2)nc1C,2,-0.6,-1.8,0.1%,-14,5
Cc1cc(C)cc(OCC(O)Cn2nc(C)cc2C)c1 (configuration not stated),3,1.6,3.0,-1.9%,-3,2
O=C(CSc1nn(-c2ccc(Cl)cc2)c(=S)s1)NCC1CCCO1 (configuration not stated),1,1.0,0.9,1.2%,-2,·
COCCn1c(=O)[nH]c2cc(C(=O)NCCN3CCN(c4ccccc4F)CC3)ccc2c1=O,-1,-0.4,?,0.6%,18,2
COc1cccc(NC(=O)c2ccc(CN3CCOCC3)cc2)c1,-2,0.3,-2.0,0.1%,-18,4
CCN(c1ccccc1)S(=O)(=O)c1ccc(OC)c(NC(=O)CCc2nc3ccccc3c(=O)[nH]2)c1,-30,1.0,-4.4,0.9%,4,-24
O=C1c2ccccc2C(=O)C1c1ccnc2ccccc12,-6,0.0,-4.1,0.7%,-19,-1
Cc1ccc(-c2nnc(CN3CCN(C)CC3)o2)cc1,-4,0.6,-3.2,-0.3%,-4,0
S=c1[nH]nc(-c2cccc(Cl)c2)n1/N=C/c1ccco1,-6,0.4,-0.3,-0.4%,-11,2
N=C1/C(=C/c2cccn2Cc2ccc(Cl)cc2)C(=O)N=C2SC=CN12,0,1.1,-5.8,?,-4,-20
O=C(CSc1ncccn1)NC1CCCc2ccccc21 (configuration not stated),0,0.9,-18,0.6%,2,10
Cc1cccc(N2CCN(CC(=O)NCC3CCCCC3)CC2)c1C,3,2.0,-0.9,4.2%[38.3 µM],-19,-9
COc1cc(OC)cc(C(=O)NCc2ccc3c(c2)OCO3)c1,39,-1.2,1.2,-0.6%,-8,-8
CN1C(=O)c2ccc(C(=O)NCc3ccco3)cc2C1=O,-1,0.2,-13,0.9%,-6,-1
O=C(Nc1cccc(Cl)c1)Nc1cnccn1,0,-0.3,-0.4,-0.1%,-4,-3
Nc1nonc1-n1nnc(C(=O)N/N=C/c2ccc(O)cc2)c1COc1ccc(F)cc1,-5,2.3,1.8,5.3%,-7,-28
CC1(C)C(C=C(Cl)Cl)C1C(=O)Nc1ccc([N+](=O)[O-])cc1 (configuration not stated),-1,2.7,2.5,?,-25,1
CC1=NN(Cc2ccccc2)C(=O)C1C(c1ccc(Cl)cc1)C(C#N)C#N (configuration not stated),-4,0.5,-6.3,?,-20,-19
CC(C)CNC(=O)c1cc(=O)[nH]c2ccc(S(=O)(=O)Nc3ccc(F)cc3)cc12,3,1.8,-1.1,1.7%,0,0
CCOc1ccc(C(c2c(O)nc(SC)[nH]c2=O)c2c(O)nc(SC)[nH]c2=O)cc1,2,0.6,-3.0,-0.5%,2,·
CCCN(Cc1ccccc1)C(=S)Nc1ccc(OC(F)F)cc1,-5,6.7,-3.0,1.0%,-10,3
CC(C)n1cc(-c2ccc(Cl)cc2)cc(C#N)c1=O,54,3.3,2.8,-0.3%,0,32
CC(C)Sc1nc(N)nc2c1ncn2C1OC(CO)C(O)C1O (configuration not stated),-2,1.5,-2.9,-1.6%,-4,4
O=C(Cn1c(CC(=O)N2CCCC2)nc2ccccc21)NCc1ccccc1,2,3.0,-0.7,1.1%[38.3 µM],-3,3
COc1ccccc1N1CCN(c2cnccn2)CC1,-2,0.4,-0.8,-0.2%,-3,-1
CCN1C(=O)C(CC(=O)Nc2ccccc2Cl)N(NC(=O)c2cccc(F)c2)C1=S (configuration not stated),-5,-0.5,-5.5,3.3%,-33,8
COc1ccc(-c2nnn(CC(=O)Nc3sc4c(c3C#N)CCCC4)n2)cc1,3,3.2,4.1,2.5%,-14,-10
